High-throughput results: PubChem, National Center for Advancing Translational Sciences (NCATS)
miR-21 FLuc – qHTS Assay for Modulators of miRNAs and/orActivators of miR-21 | HeLa miR-21 FLuc reporter, luciferase, 48 h | Potency, µM (top dose mostly 38.3 µM), for the others: top-dose reporter change, positive = more light | 340,000 tested, under 10 active | AID 2288, 2010; active = well fitted rising curve with a large enough effect; inconclusive = small, poorly fitted or top-dose-only effect; inactive = no such curve, though single readings can be large or run the other way;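 also: % of control where 0% means no effect; miR-21 action dims this reporter so a rising signal means less miR-21 action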
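Using DMEM plus 10% FBS, HeLa miR-21-FLuc cells are incubated with test compounds (final up to about 40uM) for 48 hours; firefly luciferase signal is then imaged following reagent-mediated lysis.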
Rango release inh – qHTS Assay for Inhibitors of RanGTP induced Rango (Ran-regulated importin-beta cargo) - Importin beta complex dissociation; Snurportin-1 (Homo sapiens) + GTP-binding nuclear protein Ran (Homo sapiens) + Importin …; Biochemical FRET Rango-importin beta, RanGTP-induced dissociation; Potency, µM (doses to about 46.1 µM), for inactives: at the highest dose activity change, negative = inhibition; 340,000 tested, 0.071% active; active means falling FRET ratio curve, often poorly fitted, with flat reads before Ran was added; inconclusive means other falling curves, or compound fluorescence or quenching; inactive means flat or rising ratio curve;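 also: potency is read from the fitted curve at half-maximal effect; % of control where 0% means no effect; nearly all actives have a fitted effect of over 45% in size; -100% = wells without RanGTP and RCC1; the record marks most hits as doubtful in a second field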
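Quantitative HTS using a FRET biosensor: 0.1 uM Rango, 0.25 uM importin beta, 0.6 uM Ran, 2 mM GTP, 0.2 uM RCC1 final, PBS with DTT, Tween-20 and BSA. Post-read taken 45 min after Ran addition.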
Rango-impB inh – qHTS Assay for Inhibitors of Rango (Ran-regulated importin-beta cargo) - Importin beta complex formation; Rango CFP/YFP FRET sensor + importin beta, 45 min; Importin subunit beta-1 (Homo sapiens), Q14974; Potency, µM (doses to about 92.2 µM), for the others: top-dose inhibition of complex formation; 340,000 tested, 0.031% active; active = rising FRET ratio curve, often small or poorly fitted; inconclusive = mostly compound fluorescence or quenching in the first reads; inactive = flat curves in all reads;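 also: potency is read from the fitted curve at half-maximal effect; 0% = DMSO wells and 100% = buffer wells lacking importin beta; nearly all actives have a fitted effect of over 15% in size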
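FRET biosensor Rango (snurportin 1 IBB between N-terminal EYFP and C-terminal Cerulean), 50 nM in PBS/1 mM DTT/0.02% Tween-20/0.1% BSA, preincubated 5 min RT with compound; 0.125 microM importin beta added, 45 min RT, CFP/YFP FRET ratio read.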
GLA inh pH 4.5 – qHTS Assay for Inhibitors of Human alpha-Galactosidase at pH 4.5; Alpha-galactosidase A (Homo sapiens), P06280; purified enzyme, 4-MU-alpha-Gal fluorescence, pH 4.5; activity change, negative = inhibition, % at 105 µM; 230,000 tested, under 10 active; inconclusive = small, poorly fitted or top-dose-only inhibition, or a rising curve; inactive = flat fitted curve, though single readings scatter; no compound was filed as active;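 also: 0% = full activity with enzyme and -100% = basal without enzyme; dose as in the result columns while the protocol names 77 µM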
Target sequence (P06280 whole entry, looked up): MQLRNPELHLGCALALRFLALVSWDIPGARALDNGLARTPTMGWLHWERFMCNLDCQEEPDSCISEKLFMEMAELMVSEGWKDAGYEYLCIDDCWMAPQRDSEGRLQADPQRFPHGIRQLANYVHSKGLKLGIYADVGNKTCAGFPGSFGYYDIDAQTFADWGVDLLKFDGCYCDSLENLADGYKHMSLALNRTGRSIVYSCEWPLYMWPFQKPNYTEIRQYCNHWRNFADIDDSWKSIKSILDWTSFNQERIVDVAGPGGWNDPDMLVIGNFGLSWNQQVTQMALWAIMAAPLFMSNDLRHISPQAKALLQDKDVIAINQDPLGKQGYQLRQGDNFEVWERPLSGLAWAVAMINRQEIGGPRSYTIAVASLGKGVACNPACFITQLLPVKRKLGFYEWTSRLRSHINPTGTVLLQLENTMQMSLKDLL
Starred values were filed as active, the others as inactive; ? = inconclusive; . = not tested or not shown. A portion of the library; rates above refer to the full screens.

Rango release inh	miR-21 FLuc	GLA inh pH 4.5	Rango-impB inh	structure
-9%	-1%	1	0.6%	COc1ccc(CCNC2CCN(C)CC2)cc1OC
7%	-47%	-1	-0.2%	Cc1cccnc1NC(=S)Nc1ncccc1C
4%	-23%	-5	?	Clc1cc(Br)ccc1OCCN1CCOCC1
-5%	3%	4	-0.3%	CC12CC3CC(C)(C1)CC(NCc1ccncc1)(C3)C2
-15%	.	.	1.3%	O=C(COc1ccc(S(=O)(=O)N2CCOCC2)cc1)NC1CCCCC1
1%	5%	.	-0.8%	CCOc1ccc(NC(=O)COc2cccc3c2CCN(Cc2cccnc2)C3=O)cc1
0%	1%	.	0.7%	COc1ccc(C(=O)Nn2c(C)nc3ccccc3c2=O)cc1OC
-1%	-21%	11	2.4%	CSc1nnc2c(n1)c(C)nn2-c1ccc(C)cc1
2%	-4%	.	2.4%	Cn1c(=O)c(C(N)=S)cn(-c2ccccc2)c1=O
-6%	2%	3	?	CCOC(=O)c1cc(-c2nnc(SCC(=O)Nc3ccc(F)cc3)o2)c(C)nc1C
3%	-8%	-1	-1.6%	COc1ccccc1N1CCN(C(=O)CSc2ccc3c(C)cc(C)nc3n2)CC1
2%	2%	0	1.4%	COC(=O)c1cc(NC(=O)CN2C(=O)CSC2=O)ccc1Cl
-4%	.	.	-1.4%	CN1CCN(C(=O)C2=C[C@H](c3ccc(C(F)(F)F)cc3)C[C@H](OCCCCO)O2)CC1
0%	-53%	-11	-2.6%	Cc1ccc(-c2noc(C3CCCN(C(=O)c4ccccc4)C3)n2)o1 (stereo unspecified)
-18%	-5%	.	-3.7%	CCOc1ccccc1N=NC1C(=O)N(C(N)=S)N=C1C (stereo unspecified)
?	-6%	.	0.4%	Cc1ccc(F)cc1CNC(=O)C1CCC(=O)N(CCc2ccccc2)C1 (stereo unspecified)
3%	-2%	-7	-1.9%	COc1ccc(Cl)cc1NC(=O)c1c(-c2ccccc2)noc1C
2%	-8%	4	-2.3%	CC1C/C(=N\NC(=O)c2ccc([N+](=O)[O-])cc2)CC(C)(C)C1 (stereo unspecified)
-7%	0%	9	1.4%	CC(C)CC(=O)N1CCN(Cc2ccccc2[N+](=O)[O-])CC1
14%	-2%	3	-0.1%	CCC1=NC(c2ccccc2)N(O)C1(C)C (stereo unspecified)
-10%	-3%	7	-2.9%	CC1=C(C(=O)NC2CCCC(C)C2C)C2(CCCCC2)OC1=O (stereo unspecified)
-10%	-3%	-4	-5.0%	CCOC(=O)C1=C(C)NC(C)=C(C(=O)OCC)C1C(=O)OCC(=O)NC
1%	-2%	7	-0.7%	Cc1nc(N2CCOCC2)c2c(C)c(C(=O)Nc3ccc(F)cc3Cl)sc2n1
5%	-7%	0	-0.4%	CCOC(=O)C1(CCc2ccccc2)CCN(C2Cc3ccccc3C2)CC1
-12%	-7%	.	0.1%	COc1cccc(CNC(=O)c2ccc3c(c2)N(C)CCS3)c1OC
12%	-2%	.	-0.2%	Clc1ccc(C2Nc3cccc4cccc(c34)N2)cc1Cl
42%	7%	.	-3.0%	CCN(CC)C(=O)CSc1nc2c(sc(=S)n2-c2ccccc2)c(=O)n1-c1ccccc1OC
-6%	-24%	.	-0.4%	CC(=O)NC(Cc1ccc(F)cc1)C(=O)NC1CCN(C(=O)Nc2cccc(C)c2)CC1 (stereo unspecified)
1%	-1%	0	-4.2%	Cc1ccc(C(=O)N2CCOCC2)c(F)c1F
6%	2%	2	-1.2%	CCOC(=O)NC(NC(=S)Nc1ccccc1[N+](=O)[O-])C(Cl)(Cl)Cl (stereo unspecified)
31%	-4%	.	0.7%	O=C(NNC(=O)C12CC3CC(CC(C3)C1)C2)c1ccccc1[N+](=O)[O-]
12%	-36%	-7	?	O=c1c2sccc2nc(SCc2ccc([N+](=O)[O-])cc2)n1Cc1ccccn1
-12%	-3%	0	4.3%	Cc1nc2cc(NC(=O)CSc3nc4c(C)cccc4cc3C#N)ccc2s1
10%	0%	5	-0.6%	CCC1COC(c2cccn2Cc2ccc(Cl)cc2)=N1 (stereo unspecified)
13%	-38%	-2	-3.3%	Cc1ccc(C2CCN(C(=O)Nc3ccc(F)cc3)C2)cc1 (stereo unspecified)
-12%	-84%	-3	-1.4%	CCn1c(C)nc2cc(C(=O)NNC(=S)Nc3ccc(F)cc3)ccc21
-3%	.	.	?	COc1cc(OC)cc(-c2c(C#Cc3ccsc3)c3cc(-c4ccc(CN5CCOCC5)cc4)ccc3n2C)c1
.	-15%	1	.	COc1ccc2c(c1)c(=O)oc1cc3oc(C)c(C)c3cc12
?	-3%	-16	4.9%	COc1ccc(N2C(=O)C(O)C2c2ccc(C)cc2)cc1 (stereo unspecified)
-8%	-6%	-2	8.5%	O=C(C[n+]1cccc(CNC(=O)c2ccc(OC(F)F)cc2)c1)Nc1cc(C(F)(F)F)ccc1Cl
-10%	.	.	-1.1%	CCOC(=O)c1ccc(S(=O)(=O)NNc2ccc(C(F)(F)F)cn2)cc1
41%	.	.	-2.8%	Oc1ccc(C[C@H]2CNC(=S)N2CC2CCCN2C[C@H](Cc2ccc(O)cc2)N2C[C@H](Cc3ccc(O)cc3)N(CC3CCCCC3)C2=S)cc1 (stereo partly specified)
-15%	.	.	-1.3%	CCCSc1ccc([C@@H]2[C@H]3C(=O)N(CC)C(=O)[C@H]3[C@]3(C(=O)OC)CCCN23)cc1OC
4%	0%	.	-0.1%	CCN(CC(=O)NCc1ccc(F)cc1)C(=O)c1ccc(Cl)cc1
-13%	-2%	.	1.7%	CCOC(=O)Cn1c(=O)c(F)cn(Cc2ccc(OC)c([N+](=O)[O-])c2)c1=O
-1%	.	.	0.7%	NS(=O)(=O)c1cccc(NC(=O)COC(=O)/C=C/c2nc3ccccc3s2)c1
?	-20%	0	?	CCn1c(/C=C/c2c(C)[nH]c3ccccc23)nc2ccccc2c1=O
5%	.	.	0.4%	Cc1cccc(C(=O)NNC(=S)NC(=O)c2ccccc2)c1
-20%	-22%	1	-3.6%	CCOc1nc(N2CCOCC2)nc(C)c1[N+](=O)[O-]
3%	-1%	-1	-2.1%	COc1ccc(C(=O)CSc2nnc(-c3cccs3)n2-c2ccccc2)cc1
-10%	6%	0	-1.1%	Cc1ccc([N+](=O)[O-])cc1NC(=O)Cc1cccs1
2%	0%	.	-3.1%	CCOc1ccc(S(=O)(=O)N(C)CC(=O)N2CCN(CC)CC2)cc1
-12%	-6%	7	0.1%	Cc1ccc(NC(=O)CSc2nc3ccccc3c(=O)n2Cc2cccs2)cc1
4%	-4%	-2	2.5%	CCc1ccccc1NC1=NCC(=O)N1C1CCCCC1
6%	15%	-12	6.1%	O=C(COc1ccc(Br)cc1CNCCCN1CCOCC1)Nc1ccccc1
5%	-14%	-12	-0.9%	CSCCC1NC(=O)N(CC(=O)Nc2ccc(N3CCCCC3)cc2)C1=O (stereo unspecified)
11%	-3%	-6	1.6%	COC(=O)c1ccccc1NC(=O)CSc1nc2ccccc2c(=O)[nH]1
3%	1%	6	1.2%	CCC(C)[C@H](NC(=O)N1CCCCCC1)C(=O)OC (stereo partly specified)
-4%	-11%	3	-3.3%	O=C(CCCn1c(=O)oc2ccccc21)N1CCN(c2ccc(F)cc2)CC1
-1%	-5%	2	0.2%	CCOC(=O)C(C)n1cnc2c1c(=O)[nH]c(=O)n2C (stereo unspecified)

Brought forward from above: three entries, followed by the next part.
Rango release inh	miR-21 FLuc	GLA inh pH 4.5	Rango-impB inh	structure
3%	1%	6	1.2%	CCC(C)[C@H](NC(=O)N1CCCCCC1)C(=O)OC (stereo partly specified)
-4%	-11%	3	-3.3%	O=C(CCCn1c(=O)oc2ccccc21)N1CCN(c2ccc(F)cc2)CC1
-1%	-5%	2	0.2%	CCOC(=O)C(C)n1cnc2c1c(=O)[nH]c(=O)n2C (stereo unspecified)
8%	24%	-6	0.5%	CC(C)Oc1cccc(C(=O)C2CCCN(Cc3cccn3-c3ccccn3)C2)c1 (stereo unspecified)
?	-1%	-1	2.5%	CC(=O)NCCc1ccc(S(=O)(=O)Nc2cccnc2)cc1
2%	?	.	-0.4%	CCOc1ccccc1N(C)S(=O)(=O)c1ccc2c(c1)CC(C)N2C(=O)C1CC1 (stereo unspecified)
-1%	-7%	.	-0.2%	COc1cccc(CNC(=O)CSc2nc3ccc(C)cc3[nH]2)c1
-3%	5%	.	-2.0%	COc1cccc(COC(=O)C2CC(=O)N(Cc3ccco3)C2)c1OC (stereo unspecified)
1%	-1%	-10	-4.4%	CCOC(=O)c1ccc2c(c1)nc(COc1ccc3ccccc3c1)n2CC
11%	-1%	9	0.2%	COc1ccccc1NC(=S)N1CCOCC1
0%	.	.	-1.7%	Cc1csc(SC(C)C(=O)NCC2CCCO2)n1 (stereo unspecified)
9%	-10%	?	?	CCOP(=O)(OCC)c1nc(-c2cccc3ccccc23)oc1NCc1ccc(OC)cc1
1%	0%	0	-1.1%	COc1cc(C)c(Cl)cc1S(=O)(=O)NCCCN1CCOCC1
0%	.	.	-0.5%	O=C1/C(=C\c2ccccc2)CCC/C1=C/c1ccccc1
3%	0%	2	1.3%	CCCC(=O)Nc1ccc(S(=O)(=O)N2CCCC2)cc1

16 neighbouring compounds out of the list so far:
Rango release inh	miR-21 FLuc	GLA inh pH 4.5	Rango-impB inh	structure
6%	15%	-12	6.1%	O=C(COc1ccc(Br)cc1CNCCCN1CCOCC1)Nc1ccccc1
5%	-14%	-12	-0.9%	CSCCC1NC(=O)N(CC(=O)Nc2ccc(N3CCCCC3)cc2)C1=O (stereo unspecified)
11%	-3%	-6	1.6%	COC(=O)c1ccccc1NC(=O)CSc1nc2ccccc2c(=O)[nH]1
3%	1%	6	1.2%	CCC(C)[C@H](NC(=O)N1CCCCCC1)C(=O)OC (stereo partly specified)
-4%	-11%	3	-3.3%	O=C(CCCn1c(=O)oc2ccccc21)N1CCN(c2ccc(F)cc2)CC1
-1%	-5%	2	0.2%	CCOC(=O)C(C)n1cnc2c1c(=O)[nH]c(=O)n2C (stereo unspecified)
8%	24%	-6	0.5%	CC(C)Oc1cccc(C(=O)C2CCCN(Cc3cccn3-c3ccccn3)C2)c1 (stereo unspecified)
?	-1%	-1	2.5%	CC(=O)NCCc1ccc(S(=O)(=O)Nc2cccnc2)cc1
2%	?	.	-0.4%	CCOc1ccccc1N(C)S(=O)(=O)c1ccc2c(c1)CC(C)N2C(=O)C1CC1 (stereo unspecified)
-1%	-7%	.	-0.2%	COc1cccc(CNC(=O)CSc2nc3ccc(C)cc3[nH]2)c1
-3%	5%	.	-2.0%	COc1cccc(COC(=O)C2CC(=O)N(Cc3ccco3)C2)c1OC (stereo unspecified)
1%	-1%	-10	-4.4%	CCOC(=O)c1ccc2c(c1)nc(COc1ccc3ccccc3c1)n2CC
11%	-1%	9	0.2%	COc1ccccc1NC(=S)N1CCOCC1
0%	.	.	-1.7%	Cc1csc(SC(C)C(=O)NCC2CCCO2)n1 (stereo unspecified)
9%	-10%	?	?	CCOP(=O)(OCC)c1nc(-c2cccc3ccccc23)oc1NCc1ccc(OC)cc1
1%	0%	0	-1.1%	COc1cc(C)c(Cl)cc1S(=O)(=O)NCCCN1CCOCC1
